BasE inh = blocks the Acinetobacter baumannii siderophore enzyme BasE; purified BasE, fluorescence polarization binding displacement; inhibition, % (no concentration beside the values); hit rate 0.1% among 84,000;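 active means both replicates above 25% with normal brightness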;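 further: 0% = negative plate control signal and 100% = positive plate control signal; stock transfer was 100 nL into about 30 µL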
KSHV LANA nucl = LANA-nucleosome interaction inhibition. FITC-LANA1-23 / chicken nucleosome fluorescence polarization; hits give low values. z-score (concentration not given with the values). hit rate 0.3% among 51,000. AID 720717;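 active means both repeat wells score below -2 in polarization z-score versus plate sample wells, excluding overly bright wells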;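 further: 100 nL library stock added to about 30 µL; numbers are from one replicate; some results filed as inactive read as strong as hits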
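Assay system: FITC-LANA peptide and chicken nucleosomes; input: 240 nM purified chicken nucleosomes (480 nM peptide binding sites), final; also added: 50 nM FITC-LANA1-23 probe; medium: TEN-BT buffer, pH 7.5; doses: pin-transferred compound, 100 nL; times: 10–45 min, room temperature; technique: fluorescence polarization; replication: duplicates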
Starred values were filed as active, the others as inactive; / = no result given; & = joins results of further samples.

SMILES	BasE inh	KSHV LANA nucl
COC(=O)C1=CN(CCCN2CCCC2=O)C=C(C(=O)OC)C1c1ccccc1C(F)(F)F	-1.0	0.0015
Cc1cc2nc3c(=O)n(C)c(=O)n(C)c3nc2cc1NC(=O)C(F)(F)F	17	-0.93
N#C/C(C(=S)Nc1ccccc1)=C1/NN=C2CCCCCN21	2.4	/
Cc1ccc(NC(=O)Cn2c(=O)oc3cc(S(=O)(=O)N4CCCCCC4)ccc32)cc1F	-2.5	0.097
CCc1ccccc1NC(=O)Nc1cccs1	-4.0	-0.44
CCNC(=O)CSc1nnc(-c2cccc(C)c2)n1-c1ccc(OCC)cc1	1.5	/
CCCN(Cc1nnc(-c2cccs2)o1)C(=O)C1COc2ccccc2O1 (configuration not stated)	0.6	/
CCOC(=O)C1=C(CSc2nc3cc(C(=O)OC)ccc3c(=O)n2Cc2ccco2)NC(=O)NC1	2.0	/
C=CC(=O)NC(C)(C)Cc1ccccc1	-2.7	0.16
COc1ccc(N(Cc2nnc3n2CCCCC3)C(=O)Nc2ccccc2)cc1	1.6	-0.21
O=C(CCCCCN1C(=O)C2C3C=CC(C3)C2C1=O)Nc1ncccc1O (configuration not stated)	3.5	-0.75
COC(=O)C1=CN(C)C=C(C(=O)OC)C1c1ccc(OC)cc1	0.1	-0.69
O=C(COc1ccc(Cl)cc1)N1CCN(Cc2ccc3c(c2)OCO3)CC1	-2.9&-3.2	-0.22&0.59
CCc1ccc(OCC(=O)N/N=C(\C)c2ccc(-n3ccnc3)cc2)cc1	-0.5	/
Cc1cc(C)c(C#N)c(SCCCCN2C(=O)c3ccccc3C2=O)n1	3.0	/
CCC(=O)c1ccc(OCC(=O)N2Cc3ccccc3CC2C(=O)O)cc1 (configuration not stated)	1.7	/
COC(=O)N1CCN(CCc2ccccc2)CC1	0.9	0.46
Cc1nc2ccc(NC(=O)C3CC3)cc2c(=O)n1Cc1ccc(F)cc1	-6.7	0.5
CSc1nnc(Cc2cc(=O)[nH]c(=O)[nH]2)n1-c1ccccc1	-0.8	-0.2
O=C(O)CC(N=C1NS(=O)(=O)c2ccccc21)c1ccc(Cl)cc1 (configuration not stated)	1.6	/
O=C1CC2(CCCC2)CC(=O)N1CCNCC1COc2ccccc2O1 (configuration not stated)	/	-0.32
CN(C)c1ccc(NC(=O)NCc2ccccc2)cc1	0.9	0.47
O=C(Nc1sccc1C(=O)N1CCOCC1)c1cccnc1	-0.2	-0.045
C#CCOc1ccc2ccccc2c1CO	-2.8	1.1
Cc1noc2ncnc(Nc3ccccc3)c12	-3.9	/
Cc1c(N)cccc1-c1nc2ccccc2o1	-0.7	-0.23
NC(=O)c1c(O)c2c([nH]c1=O)CCCC2	-1.9	1.1
CC/C(C)=N/NS(=O)(=O)c1ccccc1	-3.3	1.8
CNCc1ccc(OC)cc1	1.5	/
O=C(O)CCSc1nnc(-c2cccs2)o1	0.8	-0.81
COc1cc(C(=O)COC(=O)C2CC(=O)N(Cc3ccco3)C2)cc(OC)c1OC (configuration not stated)	1.5	/
CN1CCN(C(CNC(=O)Cc2ccc(F)cc2)c2ccc(F)cc2)CC1 (configuration not stated)	1.2	-0.11
CCc1ccc(C(=O)CCC(=O)O)s1	-0.2	0.97
CCOc1ncccc1C(=O)NNc1ccc(S(=O)(=O)N2CCN(C)CC2)cn1	0.8	/
O=C(/C=C/c1ccc(S(=O)(=O)N2CCOCC2)cc1)N(c1ccccn1)C1CCCCC1	1.6	/
CC(OC(=O)C1CCN(c2ccc(C(F)(F)F)cn2)CC1)C(=O)N(C)c1ccccc1 (configuration not stated)	0.8	/
CCOc1ccc(N2C(=O)c3ccc(OC)c(OC)c3C2=O)cc1	-0.5	/
Cc1ccc(S(=O)(=O)n2ncc3c2CCN(C(=O)OC(C)(C)C)C3)cc1	0.2	0.066
O=C(OCCNc1c(F)c(F)nc(F)c1F)c1ccccc1	-0.9	/
Cc1[nH]c(=O)c(C#N)c(C)c1CCC(=O)N[C@@H](Cc1ccccc1)c1nc2ccccc2[nH]1	-2.3	/
N#Cc1c2c(c(NCC3CCCO3)n3c1nc1ccccc13)CCCC2 (configuration not stated)	2.1	0.061
Cc1cccc2nc(CSC3=Nc4ccccc4C4=NC(CCC(=O)NCc5ccco5)C(=O)N34)cc(=O)n12 (configuration not stated)	0.4	-0.31
CC(C)n1ncc2c(C(=O)O)cc(C3CC3)nc21	1.8	/
O=C1CCCN1Cc1nnc(SCc2c(Cl)cccc2Cl)o1	1.1	/
CCCn1c(N)cc(=O)[nH]c1=O	0.7	/
COc1cccc(-c2nn(-c3ccc(F)cc3)cc2C(=O)N2CCN(c3ccccc3O)CC2)c1	2.6	/
CCOCCCn1c(NN)nc2ccccc2c1=O	-1.3	/
COc1ccc(NC(=O)n2ncc3cc(Cl)ccc32)cc1	-0.5	0.83

5 entries drawn at random from the list so far:
SMILES	BasE inh	KSHV LANA nucl
Cc1nc2ccc(NC(=O)C3CC3)cc2c(=O)n1Cc1ccc(F)cc1	-6.7	0.5
O=C1CC2(CCCC2)CC(=O)N1CCNCC1COc2ccccc2O1 (configuration not stated)	/	-0.32
Cc1cccc2nc(CSC3=Nc4ccccc4C4=NC(CCC(=O)NCc5ccco5)C(=O)N34)cc(=O)n12 (configuration not stated)	0.4	-0.31
COC(=O)C1=CN(CCCN2CCCC2=O)C=C(C(=O)OC)C1c1ccccc1C(F)(F)F	-1.0	0.0015
CCc1ccccc1NC(=O)Nc1cccs1	-4.0	-0.44

Other structures
SMILES	BasE inh	KSHV LANA nucl
Cc1ccc(C(=O)OC(C)CN2C(C)CCCC2C)cc1 (configuration not stated)	-1.0	/
COc1ccccc1-n1c(C)cc(/C=C(\C#N)C(=O)OCc2nnc(-c3ccccc3)o2)c1C	-0.1	/
CN(CC(=O)NCCc1ccc(Cl)cc1)CC1COc2ccccc2O1 (configuration not stated)	0.6	/
COCCn1c(C)cc(C(=O)COC(=O)c2ccc3c(=O)n4c(nc3c2)CCCCC4)c1C	2.0	/
Cc1cc(-c2ccc(C)c(S(=O)(=O)NCCCN3CCCCCC3)c2)on1	-9.8	/
CC(C)(C)OC(=O)N1CCC(CNC(=O)Nc2ccccc2)CC1	1.1	/
c1csc(-c2ccc(-c3ccn[nH]3)s2)c1	-1.2	1.6
NC(=O)Cc1coc2ccc3ccccc3c12	-5.6	2.9
Cn1c(SCC(=O)NC(C)(C)C)nnc1-c1ccccc1	-2.6	-0.17
Cc1ccc2c(c1)CCCN2C(=S)Nc1cccc(C(F)(F)F)c1	0.1	/
O=C(CSc1nc2cc(S(=O)(=O)N3CCCCC3)ccc2o1)Nc1ccccc1F	-0.2	/
COC(=O)c1ccc(Cn2c(C)cc(C)[n+]2C)o1	1.2	-0.73

Record cards, from the list above. Screens in order: BasE inh	KSHV LANA nucl
Record of `Cc1cc(-c2ccc(C)c(S(=O)(=O)NCCCN3CCCCCC3)c2)on1` = -9.8	/
Record of `Cn1c(SCC(=O)NC(C)(C)C)nnc1-c1ccccc1` = -2.6	-0.17

The list continues:
SMILES	BasE inh	KSHV LANA nucl
CCc1ccc(OCC(=O)Nc2sc3c(c2C(=O)OC)CCCC3)cc1	2.1	/
COc1ccc(Cc2nnc(SCc3cccc(C(=O)O)c3)o2)cc1OC	1.2	-1.7
O=C(CCNS(=O)(=O)c1cccs1)NC1CCCc2ccccc21 (configuration not stated)	2.3	/
CCOC(=O)/C=C(\C)Nc1ccc2cn[nH]c2c1	/	-0.48
COc1ccc(Cc2nnc(SCC(N)=O)o2)cc1	-0.3	0.038
CC(=O)Nc1cccc(C(=O)OCCN2C(=O)c3ccccc3C2=O)c1	-0.3	/
O=C1/C(=N\n2cnc3c(cnn3-c3ccccc3)c2=O)c2ccccc2N1CO	1.8	/
Cc1ccc(C2NC(=S)NC3=C2N2CCC3CC2)cc1 (configuration not stated)	2.4	-0.58
N#C/C(=C\c1ccc[nH]1)S(=O)(=O)c1ccccc1	-0.3	0.87
CC1=C(C)SC(=C(C#N)c2nc(-c3ccccc3)cs2)S1	3.5	/
O=C(CSc1nnc(Cc2ccccc2)o1)N(c1ccccc1)c1ccccc1	3.9	-0.36
CCCn1nc(C(=O)Nc2ccc3nc(N4CCOCC4)sc3c2)ccc1=O	1.1	/
O=C(CCOc1ccccc1)NCc1ccco1	0.1	/
COC(=O)Cc1c(C(=O)OC)sc(N)c1C#N	-2.8	/
COc1ccc(N=C(N(C)C)P(=O)(N(C)C)N(C)C)cc1	0.2	/
Cc1cc(C(=O)CSc2cc(C(=O)c3nccn3C)c3ccccc3n2)c(C)n1C1CC1	1.9	/
Cc1ccc(S(=O)(=O)N(C)CCO)cc1-c1nnc2c3ccccc3c(C)nn12	-1.2	1.2
COc1ccc(C2OC(COc3ccc4c(C)cc(=O)oc4c3)=NN2C(C)=O)cc1 (configuration not stated)	0.4	-1.3
COc1ccc(C(=O)N2CC(C)N(C(=O)c3ccc(OC)c(OC)c3)CC2C)cc1OC (configuration not stated)	2.1	/
O=C(/C=C/c1ccc(F)cc1)N(CCO)c1nc2ccccc2[nH]1	-1.8	/
N#Cc1ccc(CSc2nnc(-c3sc4ccccc4c3Cl)o2)cc1	0.1	/
CCn1c(CCNC(=O)c2ccco2)nc2ccccc21	-0.1	-0.058
CC1=CC(=O)CC(C)(C)C1(O)/C=C/C(C)=C\C(=O)O (configuration not stated)	1.2	-1.1
COC(=O)CNC(=O)c1cn(-c2ccc(C)c(C)c2)c(=O)c2ccccc12	1.2	/
O=C(COC(=O)c1cc(=O)c2ccccc2o1)c1ccc2[nH]c(=O)[nH]c2c1	0.1	/
Cc1ccc(CNC(=O)CN2CCN(Cc3cccc(C)c3)C2=O)cc1	0.1	-0.22
O=C1c2ccccc2C(=O)N1CCSc1n[nH]c(=O)n1Cc1ccccc1	1.4	/
COC(CNC(=O)c1ccc(CS(=O)(=O)Cc2cccc(C)c2)o1)OC	0.1	0.15
COCCn1c(NC(=S)NC(=O)C2CC2)cc(=O)[nH]c1=O	1.3	/
CCCC1CC(=O)CC(=O)C1	1.3	/
CC(=O)N1CCCn2c1nc1ccccc12	0.2	-0.6
COc1ccc(Oc2cc(C(F)(F)F)nc3cc(C(C)(C)C)nn23)cc1	2.0	/
O=C(O)COCC(=O)Nc1ccccc1SCc1noc(-c2cccs2)n1	-0.3	-0.36
COC(=O)c1cc(NC(=O)c2c(Cl)nc3sccn23)cc(C(=O)OC)c1	2.2	/
Cc1cc(C(=O)N2CCc3ccccc32)no1	-0.1	0.65
O=C(C1CC1)N1CCc2cc(Br)cc(S(=O)(=O)NCCCN3CCN(Cc4ccccc4)CC3)c21	-1.8	-0.54
N#C/C(=C\C=C\c1ccco1)c1nc(-c2ccccc2)cs1	-8.0	-0.14
CCOc1cc(/C=c2/sc3nc4ccccc4n3c2=O)ccc1OC	2.8	/
COc1ccc(-c2cc(C3CCNCC3)[nH]n2)cc1	/	0.58
COc1ccc(C(CC(=O)O)Sc2ncn[nH]2)cc1 (configuration not stated)	0.7	0.37
C=NC(C(=O)NC1C(=O)N2C1SC(C)(C)C2C(=O)O)c1ccccc1 (configuration not stated)	2.0	0.69
Cc1ccc2c(c1)-c1nc3[nH]c(=O)[nH]c(=O)c3cc1C(O)O2 (configuration not stated)	-0.7	/
O=C(COc1ccc(-c2nnco2)cc1)NC(=O)NCc1ccco1	-0.4	/
O=C(Nc1nccs1)c1cccc(Cl)c1	2.6	/
Cn1c(=NC(=O)Cc2csc(-c3cccnc3)n2)sc2ccccc21	1.3	/
COC(=O)c1ccc(CSCC(=O)Nc2cc(OC)cc(OC)c2)o1	0.4	/
Cc1cc(C)nc(SCC(=O)OCCN2C(=O)c3ccccc3C2=O)n1	0.8	/
COCCCNc1ncnc2onc(-c3ccc(Cl)cc3)c12	-1.1	2.7

Given with bars between the fields: entries from further up.
Molecule | BasE inh | KSHV LANA nucl
O=C(COc1ccc(-c2nnco2)cc1)NC(=O)NCc1ccco1 | -0.4 | /
O=C(Nc1nccs1)c1cccc(Cl)c1 | 2.6 | /
Cn1c(=NC(=O)Cc2csc(-c3cccnc3)n2)sc2ccccc21 | 1.3 | /
COC(=O)c1ccc(CSCC(=O)Nc2cc(OC)cc(OC)c2)o1 | 0.4 | /
Cc1cc(C)nc(SCC(=O)OCCN2C(=O)c3ccccc3C2=O)n1 | 0.8 | /

Remaining list, next part.
SMILES	BasE inh	KSHV LANA nucl
Cc1n[nH]c(=S)n(/N=C/C2=CCC3CC2C3(C)C)c1=O (configuration not stated)	-0.7	/
CCOc1ccccc1NC(=O)C(NC1CCS(=O)(=O)C1)c1ccccc1 (configuration not stated)	-0.6	/
O=C(O)/C=C/C(=O)NNc1nc2cc(S(=O)(=O)N3CCOCC3)ccc2o1	0.6	/
COC(=O)C(F)(F)Sc1c(C)[nH]c2ccccc12	0.9	/
O=C(C(c1ccccc1)c1ccccc1)N(Cc1ccco1)Cc1cccs1	4.6	0.68
O=C(Nc1cccc(Cl)c1)NC1(C(=O)Nc2ccc3c(c2)OCCO3)CCCCC1	0.4	-0.84
O=C(Cn1c2ccccc2c2cn[nH]c(=O)c21)NCc1ccco1	0.9	-1.1
O=C(NCCN1CCN(c2nccc(C(F)(F)F)n2)CC1)NC1CCCCC1	4.3	/
COC(=O)CSc1nc2cc3c(cc2cc1C#N)OCO3	-0.5	0.073
Cc1nn(Cc2ccc(F)cc2)c(C)c1NC(=O)c1cnn2c1NC(c1ccco1)CC2C(F)(F)F (configuration not stated)	-1.6	0.6
N#Cc1ccc(CN2C(=O)c3ccccc3C2=O)cc1	2.6	/
N#Cc1ccsc1/N=C/c1ccccc1	/	-0.42
CC(C)CCn1c(CO)cnc1S(=O)(=O)C(C)C	-0.5	1.5
COc1ccc(C2N=C(c3ccccc3C)NO2)cc1O (configuration not stated)	-0.7	/

The list is partial (hit frequency here may not be typical).
